Sfp inh: Sfp phosphopantetheinyl transferase inhibition; Biochemical Sfp PPTase activity, qHTS; hit rate 3.5% among 310,000; Potency, µM, for inactives: max response, negative = inhibition, usual class: inhibitors; Q9F4F7; active = well fitted inhibition curve with a large enough effect; inconclusive = small, poorly fitted or top-dose-only effect, or another doubt; inactive = no such curve, though single readings can be large or run the other way;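 also: the enzyme is Sfp with the accession as filed and its product quenches rhodamine fluorescence; potency is read from the fitted curve at half-maximal effect; 0% = enzyme reaction without inhibitor and -100% = no enzyme wells; top concentration of the series not given in the record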
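Sfp 15 nM + cpd, 15 min RT; start w/ rhodamine-CoA 5 uM, BHQ-2-YbbR 12.5 uM (final); 50 mM Hepes pH 7.6, 10 mM MgCl2, 0.01% NP-40, 0.01% BSA; read 525/598 nm at 0 and 30 min.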
TRPML1 agonist: activates the human TRPML1 channel. activation, % (test concentration not listed). Q9GZU1. hit rate 0.12% among 410,000. TRPML1-expressing cells, Ca2+ dye fluorescence, FDSS; host cell line not named in the record; reference of the full effect not given here; in the data active = activation above about 50%; inconclusive = about 30% to 50%; inactive = below about 30%; also: 0% is about no effect; the text of the record puts the active cut at 80%
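In this qHTS format, compounds were pin-transferred onto Ca8-dye-loaded TRPML1-DL cells induced with Tet overnight, and intracellular Ca2+ fluorescence was recorded kinetically for 110 s after a 10 s baseline. A subsequent 4uM final 54-4 (EC80) addition followed by a second 110 s read served as the antagonist phase.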
ClpP mod: qHTS Assay for Activators of ClpP; ATP-dependent Clp protease proteolytic subunit (Bacillus subtilis (strain 168)), P80244; purified B. subtilis ClpP, FRET peptide cleavage, 20 min; AID 651965, 2013; hit rate 1.9% among 340,000; Potency, µM (doses to about 57.5 µM), inactives show at the top dose activity change, negative = active; active = well fitted falling curve with a large enough effect; inconclusive = small, poorly fitted or top-dose-only effect; inactive = no such curve, though single readings can be large or run the other way; also: potency is read from the fitted curve at half-maximal effect; the source files actives as falling curves though it sought activators and does not explain the sign; nearly all actives have a fitted effect of over 65% in size; many hits overshoot -100%
Target sequence (P80244 whole entry, looked up): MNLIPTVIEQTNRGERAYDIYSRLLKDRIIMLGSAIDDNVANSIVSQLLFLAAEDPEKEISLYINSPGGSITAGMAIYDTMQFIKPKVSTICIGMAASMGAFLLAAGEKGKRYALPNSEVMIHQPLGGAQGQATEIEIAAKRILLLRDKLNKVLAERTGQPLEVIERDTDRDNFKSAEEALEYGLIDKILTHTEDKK
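ClpP 10 microg/mL final, pH 8 Tris/KCl buffer with BSA, glycerol, Tween-20; compound pinned in; FRET-FV substrate; RT 20 min; Ex320/Em430; ΔFRET vs ADEP 5.8 microM, DMSO, no enzyme.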
TRPML1 blocker: blocks the human TRPML1 channel; TRPML1-inducible cells, Ca2+ dye fluorescence, FDSS; active compounds read low; inhibition of EC80 agonist-evoked calcium signal; activity change, negative = inhibition, % (test concentration not listed); hit rate 0.02% among 390,000; AID 624415; in the data active means activity change below about -50%; inconclusive means about -30% to -50%; inactive means above about -30%;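 also: stimulus is agonist 54-4 at its EC80 concentration; % is scaled to controls: 0 for no effect and ±100 for the full control effect; compound concentration not given in the record; the text of the record puts the active cut at -80%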
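Calcium fluorescence in TRPML1-DL cells induced overnight with Tet: a 110 s read after compound pin addition, then a 110 s antagonist read after challenge with 54-4 at 4 uM final (EC80).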
TRPV1 potentiator: potentiators of human vanilloid receptor 1 (TRPV1); hit rate 0.02% among 320,000; TRPV1-expressing cells, Fluo-8 calcium influx, capsaicin EC20 potentiation; host cell line not named in the record; control for the full effect not named in the record; potentiation, % at 8.33 µM; Q8NER1; AID 540277; active means potentiation above 80%; inconclusive means 30% to 80%; inactive means below 30%; also: 0% is about no effect
Target sequence (Q8NER1 whole entry, looked up): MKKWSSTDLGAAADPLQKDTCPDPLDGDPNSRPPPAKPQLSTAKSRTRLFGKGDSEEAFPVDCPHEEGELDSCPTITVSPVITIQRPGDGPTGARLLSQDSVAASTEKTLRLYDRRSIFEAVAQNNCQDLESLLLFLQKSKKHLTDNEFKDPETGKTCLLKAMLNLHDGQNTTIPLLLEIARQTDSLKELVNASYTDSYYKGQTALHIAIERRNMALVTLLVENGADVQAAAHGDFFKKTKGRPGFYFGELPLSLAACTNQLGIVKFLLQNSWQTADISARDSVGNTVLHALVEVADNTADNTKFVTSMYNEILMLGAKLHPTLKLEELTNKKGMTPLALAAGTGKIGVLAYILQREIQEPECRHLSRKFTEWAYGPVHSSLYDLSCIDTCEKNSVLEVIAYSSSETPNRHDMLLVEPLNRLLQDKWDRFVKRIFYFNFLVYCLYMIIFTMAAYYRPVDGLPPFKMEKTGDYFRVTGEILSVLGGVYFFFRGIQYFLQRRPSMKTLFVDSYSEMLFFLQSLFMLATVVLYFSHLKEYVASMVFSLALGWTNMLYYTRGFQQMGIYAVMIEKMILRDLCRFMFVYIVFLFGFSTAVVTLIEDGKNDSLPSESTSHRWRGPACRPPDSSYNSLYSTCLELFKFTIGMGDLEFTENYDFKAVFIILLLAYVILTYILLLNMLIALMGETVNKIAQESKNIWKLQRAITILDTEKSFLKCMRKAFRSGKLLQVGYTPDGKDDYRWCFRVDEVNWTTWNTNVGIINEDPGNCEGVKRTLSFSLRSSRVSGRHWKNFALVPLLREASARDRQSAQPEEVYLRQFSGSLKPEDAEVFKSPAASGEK
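Fluo-8 calcium influx in TRPV1-expressing cells, kinetic read (ex 480/em 520 nm). Compound added and read 3 min for agonist activity, followed by capsaicin at EC20 final and 2 min further read for enhancement.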
Menin MLL FP FL: menin-MLL binding inhibition, fluorescein peptide. Fluorescence polarization, fluorescein-MLL peptide displacement from menin. FP activity change, % at 61.4 µM. 290,000 tested, under 10 active; inconclusive = falling polarisation curve, or a change in total fluorescence; inactive = total fluorescence flat and polarisation flat or rising; no compound was filed as active; the % refers to the polarisation; negative = inhibition;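 also: % of control where 0% means no effect; inhibitors lower the polarisation; unlabelled MLL peptide was the positive control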
PINK1 expr mod: modulators of PINK1 expression. PINK1 immunofluorescence, high-content cytometry, 24 h. Potency, µM (series often up to 76.6 µM), inactives show at the highest dose activation (PINK1 increase), actives largely listed as activators. hit rate 0.2% among 410,000. AID 624263; active = well fitted activation curve with a large enough effect; inconclusive = small, poorly fitted or top-dose-only effect; inactive = flat fitted curve, though single readings scatter; cell line not stated here;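 also: potency is read from the fitted curve at half-maximal effect; % of control where 0% means no effect; nearly all actives have a fitted effect of over 65% in size; a mitochondrial uncoupler was the plate control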
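Stable cell line treated 24 h with compounds at 5 concentrations (CCCP controls), then fixed and immunostained for PINK1 plus nuclear and cell stains; PINK1 immunofluorescence quantified by laser-scanning microplate cytometry.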
Starred values were filed as active, the others as inactive; u = inconclusive; x = no result given; & = joins results of further samples; [ ] = another dose, or the depositor's remark. Outcome played no part in choosing rows; overall some 4.4% were active at least once.

SMILES	Sfp inh	TRPML1 agonist	ClpP mod	TRPML1 blocker	TRPV1 potentiator	Menin MLL FP FL	PINK1 expr mod
O=C(NCc1ccc2c(c1)CCN2C(=O)c1ccccc1)Nc1cccc(C(F)(F)F)c1	x	2.0	-3.9%	-5	x	x	7.8%
CC1Cc2ccccc2N1C(=O)CSc1nnc(-c2ccccc2Cl)o1 (centres undefined)	x	2.9	-1.7%	13	x	x	-0.7%
C/C(=C\CCC1(C)C2CC3C(C2)C31C)C(=O)O (centres undefined)	9%	x	-1.3%	x	-12	6.0	0.2%
Cc1ccc(C(=O)NC(=S)NNC(=O)CC#N)cc1	18%	-0.4	x	-12	5	2.1	-1.7%
COc1cccc(/C=C2\SC(=S)N(N3CCOCC3)C2=O)c1OC	-20%	0.4	-1.5%	35	1	13	6.1%
COc1ccc(OC)c(CN2CCC(C(=O)N3CCOCC3)CC2)c1	14%	-0.3	-3.9%	-1	5	1.3	-1.3%
CCC(C)c1ccc(NC(=S)NCc2cccs2)cc1 (centres undefined)	-4%	0.1	1.3%	8	5	-0.4	6.3%[38.3 µM]
CSc1nc(N)nc2c1ncn2CC(=O)NCCCN1CCCC1=O	x	-0.3	-29%	15	x	x	-0.6%
Cc1ccc(-c2nn3c(=O)cc(CN4CCN(C(=O)Nc5cc(Cl)ccc5C)CC4)nc3s2)cc1	x	0.4	-13%	-22	x	x	-0.1%
COc1ccccc1Cc1c(-c2ccco2)nc2c3ccccc3ccn12	x	-0.3	4.3%	x	x	x	1.1%
CC(C)(C)OC(=O)N1CCC(c2c(C(=O)N3CCN(c4ncccn4)CC3)cnn2-c2ccc(F)cc2)CC1	x	-0.5	-2.9%	1	x	x	-1.1%
Cc1noc(C)c1COC(=O)c1cccc(N(C)C)c1	-7%	-2.0	0.3%	4	-2	-2.6	0.4%
Cc1ccn2cc(CSc3ccccc3N)nc2c1	20%	-0.5	-1.1%	21	-4	8.2	-0.7%[38.3 µM]
CCOCCCNCc1cc(Cl)ccc1OCC	16%	1.3	0.5%	-24	-16	-1.8	-1.8%
Cc1ccc(NS(=O)(=O)c2ccc(-c3coc(C)n3)cc2)c(Cl)c1	x	0.1	-0.9%	18	x	x	0.5%
COc1ccccc1/C=N/NC(=O)c1c(-c2ccccc2)noc1C	20%	0.3	x	-4	u	u	2.9%
CCOc1ccc(C(=O)N(Cc2cc(OC)c(OC)c(OC)c2)c2ccccn2)cc1	x	-0.8	0.0%	-8	x	x	0.4%
Clc1ccccc1CN1CCN(/N=C/c2ccncc2)CC1	1%	-0.7	1.6%	-7	u	-3.9	3.6%
O=[N+]([O-])c1cccc(-c2cc3ccccc3[nH]2)c1	15%	-0.5	0.0%	7	0	-0.1	2.5%
COc1ccccc1-n1cc(C(=O)NCC(=O)N2CCN(c3ccccn3)CC2)c2ccccc2c1=O	13%	-0.5	u	-2	15	-0.1	0.4%
COc1ccc(NCc2cc3cc(OC)ccc3[nH]c2=O)cc1	-3%	-0.2	u	-17	12	-0.4	-0.2%[38.3 µM]
O=Nc1nc2ncccn2c1-c1ccccc1	x	0.2	-2.6%	41	x	x	-2.2%
Cc1cccn2c(=O)c3cc(C(=O)NCc4ccccc4)c(=N)n(CCCN4CCOCC4)c3nc12	x	1.3	3.0%	2	x	x	2.5%
CN1CCCN(C(=O)CC2(CC(=O)O)CCCCC2)CC1	-8%	-0.7	x	7	1	2.7	2.9%
COc1ccc(CN(C)S(=O)(=O)c2nnc(NC(=O)C(C)C)s2)cc1OC	x	0.3	-3.0%	22	x	x	1.3%
CCOC(=O)c1c(=O)n(O)c2ccc(OC)cc2[n+]1[O-]	2%	0.7	0.5%	8	5	u	-0.1%
COC(=O)c1ccc(NC(=O)Cn2cnc3c2c(=O)n(C)c(=O)n3C)cc1	x	-0.1	-2.7%	-13	x	x	-0.2%
CC(=O)NC12CC3CC(C)(C1)CC(NC(C)=O)(C3)C2	-5%	0.8	0.5%	-7	x	1.7	1.2%[38.3 µM]
COc1cc(/C=N\Nc2nc(-c3ccc(C)cc3)c(NC(C)=O)s2)ccc1O	-21%	x	-13%	x	-8	-1.7	4.8%
CCOc1ccc(-c2cc(C)n3nc(C(N)=O)cc3n2)cc1	-26%	-0.1	16µM*	-11	6	1.5	-1.1%
O=C(CNS(=O)(=O)c1ccc(F)c(Cl)c1)N1CCCC1	20%	1.0	-1.5%	-6	16	2.8	5.1%
Cc1ccc2c(c1)c1c(n2CC(O)CNC(CO)(CO)CO)CCCC1 (centres undefined)	19%	0.3	5.2%	22	u	u	0.6%
C#CCN(C[C@H]1[C@H](OC(=O)NCc2ccccc2)[C@H](OC(=O)NCc2ccccc2)C[C@@H](C(=O)OC)[C@H]1C(=O)OC)S(=O)(=O)c1ccc(C)cc1	x	2.1	2.4%	8	x	x	-0.6%
Cc1nn(Cc2cccc(C(N)=O)c2)c(C)c1Br	18%	-0.6	-0.5%	15	6	2.2	0.1%
CCCN(CC(=O)Nc1ccccc1C)C(=O)Cc1cccs1	x	0.2	-0.9%	3	-6	x	-0.9%
COc1cccc(C(C)N(C)Cc2nc(-c3ccoc3)oc2C)c1 (centres undefined)	15%	-0.2	x	0	3	-1.4	2.0%
O=C(NCc1cccnc1)Nc1ccc2c(c1)OCO2	14%	-0.5	-2.4%	-6	-2	0.1	2.1%
CCN(CC)S(=O)(=O)c1ccc2c(c1)nc(CCC(=O)OCC(=O)Nc1cc(Cl)cc(Cl)c1)n2C	7%	-0.2	0.5%	5	18	-0.5	3.5%
N#Cc1ccc(Oc2ccc(C(F)(F)F)cc2NC(=O)c2ccc(F)cc2)cc1	4%	2.1	x	47	12	2.0	-0.2%
COc1ccc(C(CCN2CCCC(C)C2)c2c(OC)cc(OC)c3c(C)cc(=O)oc23)cc1 (centres undefined)	-13%&-6%	0.5&-0.7	-9.3%	-5&-12	u	-6.4&0.1	1.7%
Cc1ccc(C)c(Cn2c(=O)n(CC3CCC(C(=O)N4CCOCC4)CC3)c(=O)c3sccc32)c1 (centres undefined)	x	0.9	-1.7%	12	x	x	0.4%
O=C(Nc1ccc(F)cc1)c1ccc(-n2cnnc2)cc1	x	0.0	-0.3%	u	x	x	-0.6%
Cn1ccc2c(-c3ccc(C(=O)O)cc3)cc3c(c21)C1CCC3O1 (centres undefined)	x	-0.4	4.7%	14	x	x	1.1%
COc1cc(Cl)c(NS(=O)(=O)c2ccc3[nH]c(=O)ccc3c2)c(OC)c1	x	0.7	0.5%	-4	x	x	-3.5%
CS(=O)(=O)N1CCc2cc(-c3csc(NC(=O)C(c4ccccc4)c4ccccc4)n3)ccc21	10%	0.7	-4.5%	-8	0	-0.4	x
CCOc1cc(C)c(Cl)cc1S(=O)(=O)n1cnc2ccccc21	-1%	-0.7	-2.7%	15	-4	7.1	1.0%
O=C(/C=C/c1ccc(Cl)cc1Cl)c1ccc[nH]1	7%	2.0	2.2%	-19	14	3.0	-0.1%
COc1ccc(CCC(=O)OCC(=O)Nc2ccc3[nH]c(=O)[nH]c3c2)cc1	x	-0.2	1.5%	13	-10	x	1.0%
COc1ccc(CCNC(=O)c2ccc3c(c2)N(Cc2cc(C)ccc2C)C(=O)c2ccccc2S3=O)cc1OC (centres undefined)	x	-0.5	-5.8%	-3	x	x	-0.8%
CC(C(=O)Nc1cccc([N+](=O)[O-])c1)[n+]1ccccc1 (centres undefined)	20µM*	-0.4	-3.2%	-21	2	9.6	1.2%
COc1ccc(NC(=O)C2CC(=O)NC(Nc3cccc(C)c3)=N2)cc1 (centres undefined)	16%	0.5	-0.6%	-4	-1	1.5	-1.2%
COc1ccc(S(=O)(=O)N(C)CC(=O)N2CCOCC2)cc1	10%	0.6	-1.8%	-2	0	4.6	-0.5%[38.3 µM]
CN(C)c1ccc(C2(O)C(=O)c3ccccc3C2=O)cc1	1%	-0.8	x	4	-3	4.4	1.9%
O=C(Nc1ccc(S(=O)(=O)N2CCCCCC2)cc1)c1c(F)cccc1F	0%	2.8	-4.0%	16	-9	x	1.5%
C(=C\c1ccccc1)/CSc1nc2ncccc2[nH]1	11%	0.2	x	-2	-7	2.5	6.4%
FC(F)(F)C1=CC(c2ccc(Br)cc2)=NCCN1	14%	-0.5	-2.5%	4	3	-0.7	1.5%
Cc1ccc(-c2nc3ccccn3c2Nc2ccc3c(c2)OCO3)o1	x	1.4	4.8%	-9	x	x	0.5%
COc1ccc(C(=O)OCc2cc(C)ccc2C)cc1S(=O)(=O)N1CCCC1	x	0.9	-10%	62	1	x	0.9%
COc1cc(C(=S)N2CCCC2)cc(OC)c1OC	50µM*	-0.1	0.3%	-18	-4	1.4	5.6%
Nc1nnc(SC2CCCC2)s1	11%	0.3	0.3%	26	16	3.1	1.4%

Two entries drawn at random from the list so far, as already listed:
SMILES	Sfp inh	TRPML1 agonist	ClpP mod	TRPML1 blocker	TRPV1 potentiator	Menin MLL FP FL	PINK1 expr mod
FC(F)(F)C1=CC(c2ccc(Br)cc2)=NCCN1	14%	-0.5	-2.5%	4	3	-0.7	1.5%
CC(C(=O)Nc1cccc([N+](=O)[O-])c1)[n+]1ccccc1 (centres undefined)	20µM*	-0.4	-3.2%	-21	2	9.6	1.2%

New compounds follow.
SMILES	Sfp inh	TRPML1 agonist	ClpP mod	TRPML1 blocker	TRPV1 potentiator	Menin MLL FP FL	PINK1 expr mod
N=C(N)SCc1ncccc1O	-23%	0.5	-5.1%	4	2	-8.3	0.6%
Nc1nc(CN2CCCCC2)cs1	18%	1.8	1.4%	-21	7	4.7	-4.1%
CCN(C(=O)COC(=O)c1oc2ccccc2c1C)c1c(N)n(Cc2ccccc2)c(=O)[nH]c1=O	x	0.0	-6.2%	-2	-3	x	1.1%
O=C(CN1CCOCC1)Nc1ccc(Oc2ccc(NC(=O)CN3CCOCC3)cc2)cc1	13%	-0.7	1.0%	2	11	-0.5	-3.9%[38.3 µM]
COc1ccc(C(=O)n2nc(-c3ccccc3)nc2SC)cc1	5%	0.9	-2.4%	8	5	4.6	4.6%
COc1ccccc1OCC(=O)Nc1ccc(S(=O)(=O)N2CCN(C)CC2)cc1	4%	-0.2	x	-11	1	-7.7	-1.6%
COc1ccc(NS(=O)(=O)c2ccc(NC(=O)c3ccccc3)cc2)nn1	15%	-0.4	x	-6	-5	-1.4	1.8%
Cc1cc(CNC(=O)[C@H](C)[C@@H]2C[C@@]2(C)[C@@H](NC(=O)OCc2ccccc2)c2ccccc2)nn1C	-15%&0%	1.1	-1.9%	8	-19	1.9&-4.9	-0.4%
